# Screens from PubChem.
# Mtb betalactam = beta-lactam sensitization of Mtb H37Rv; M. tuberculosis H37Rv growth with meropenem, percent inhibition; hits of this screen are not shown here; inhibition, % at 25 µM; 330,000 compounds, 0.27% hits; AID 434955;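 active = about 74% or more and at least 40 points above the plate without the antibiotic, then above 30% in a dose series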;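 also: growth measured after seven days incubation then overnight dye step; 0% = bacteria only wells and 100% = bacteria with antibiotic; twin plates without the antibiotic show which effects depend on it; some results filed as inactive read as strong as hits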
# YopH PTP inh = YopH (Yersinia) phosphatase inhibition | inhibition, %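 (about 10 µM by stock and volumes)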 | 140,000 compounds, 0.16% hits | fluorescence Ex485/Em525 | AID 898;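 active = inhibition of 50% or more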;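 also: controls were vehicle for no effect and minimum signal wells for full effect; inactives centre near -20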
# Mtb growth = M. tuberculosis H37Rv growth inhibitors, H37Rv strain (AID 1626); M. tuberculosis H37Rv growth inhibition; higher % means a stronger effect; inhibition, % at 10 µM; hits with a dose series show IC50 in µM; 220,000 compounds, 0.95% hits;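 active = confirmed in a dose series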;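 also: bacteria incubated seven days before Alamar blue readout; 0% = bacteria only wells and 100% = bacteria with antibiotic wells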
# Arbovirus inh = antivirals against arbovirus infection; arbovirus infection cell-based antiviral screen; inhibition, % at 10 µM; 200,000 compounds, 0.37% hits; AID 1251;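 active = inhibition from about 30%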;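 also: bluetongue infection of BSR cells; cell survival read as ATP light after 72 h; 0% = infected wells without compound and 100% = uninfected wells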
# RecA splice inh = blocks M. tuberculosis RecA intein splicing; cell-free RecA intein splicing, fluorescence; inhibition, %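 (about 9 µM by stock and volumes)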; 290,000 compounds, 0.75% hits; AID 2221; in the data active = inhibition above about 30%;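 also: 0% = vehicle wells and 100% = reference inhibitor control wells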
# Target sequence (P9WHJ3 whole entry, looked up, canonical isoform): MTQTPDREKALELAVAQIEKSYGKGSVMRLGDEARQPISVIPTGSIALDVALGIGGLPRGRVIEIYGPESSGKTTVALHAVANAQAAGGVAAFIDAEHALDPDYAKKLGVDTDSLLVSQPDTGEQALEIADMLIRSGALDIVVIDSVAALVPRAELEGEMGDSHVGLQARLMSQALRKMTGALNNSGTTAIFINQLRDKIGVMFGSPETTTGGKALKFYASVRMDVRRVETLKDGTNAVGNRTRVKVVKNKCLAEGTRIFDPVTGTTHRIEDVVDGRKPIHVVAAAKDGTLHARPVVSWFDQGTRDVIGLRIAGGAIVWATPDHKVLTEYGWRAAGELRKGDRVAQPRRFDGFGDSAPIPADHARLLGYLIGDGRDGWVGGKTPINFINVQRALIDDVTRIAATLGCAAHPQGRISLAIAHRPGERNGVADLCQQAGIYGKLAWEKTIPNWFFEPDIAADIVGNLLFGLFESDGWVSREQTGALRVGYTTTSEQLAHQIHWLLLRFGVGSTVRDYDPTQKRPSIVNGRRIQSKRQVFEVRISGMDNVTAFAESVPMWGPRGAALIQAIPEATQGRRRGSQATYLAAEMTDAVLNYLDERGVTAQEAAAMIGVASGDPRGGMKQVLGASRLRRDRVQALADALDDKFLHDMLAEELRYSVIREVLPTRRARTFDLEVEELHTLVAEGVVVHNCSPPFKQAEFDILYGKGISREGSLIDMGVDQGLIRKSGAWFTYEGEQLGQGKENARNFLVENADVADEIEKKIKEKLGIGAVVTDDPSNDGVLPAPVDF
# Arbovirus inh repeat = second read-out of Arbovirus inh, no call of its own (marks repeat the call); inhibition, %; measured here: 10K subset replicate screen; many hits read low in the repeat;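 first of two repeat runs on a subset; 0% = infected and 100% = uninfected wells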
# * hit, by the source's call; / = no result given. This is a subset, so the mix of outcomes need not match the whole.
SMILES,Mtb betalactam,YopH PTP inh,Mtb growth,Arbovirus inh,RecA splice inh,others
CCOC(=O)C1(Cc2cccc(Cl)c2)CCCN(C(=O)CCNC(C)=O)C1 (centres undefined),-8,/,/,/,-0.7,
O=C1NC(=O)N(c2ccccc2)C(=O)/C1=C\c1ccc2c3c(cccc13)CC2,8,-9,-1%,-3,-2.9,
COC(=O)Oc1ccc(/C=N/NS(=O)(=O)c2ccccc2)cc1OC,2,/,/,/,-1.8,
CCCSc1nnc(NC(=O)CCc2ccccc2)s1,2,/,/,/,-1.6,
CN(C)S(=O)(=O)c1cccc(C(=O)NCCNC(=O)c2cccc(S(=O)(=O)N(C)C)c2)c1,-5,/,/,/,0.1,
CN(C)C(=O)c1cc(C(=O)c2ccccc2Br)c[nH]1,-3,/,/,/,0.3,
COc1cc(/C=C2\SC(=Nc3ccc(O)cc3)NC2=O)cc(OC)c1O,0,/,4%,3,-4.6,
O=C(COc1ccc(Cl)cc1)Nc1cc(NC(=O)COc2ccc(Cl)cc2)cc(C(=O)O)c1,7,/,/,/,1.8,
COC(=O)c1c(NC(=O)COC(=O)[C@@H](NS(=O)(=O)c2cccc(Cl)c2)C(C)C)sc2c1CCC2,10,-6,5%,7,2.1,
Cc1cccc(NC(=O)NCC2CCN(c3ccc(S(=O)(=O)N4CCOCC4)cc3)CC2)c1,-3,/,/,/,2.8,
CS(=O)(=O)Nc1ccc(C2=NN(C(=O)c3ccco3)C(c3ccccc3F)C2)cc1 (centres undefined),12,/,3%,1,3.3,
COc1ccc(OC)c(Cc2nnc(CCC(=O)N3CCN(C4CCCC4)CC3)o2)c1,-6,/,/,/,-3.0,
CC1CC(C)CN(S(=O)(=O)c2cc(C(=O)O)c(Cl)s2)C1 (centres undefined),1,-8,2%,5,-18,
O=S(=O)(NCC1COc2ccccc2O1)c1ccc2ccccc2c1 (centres undefined),3,-18,0%,14,-2.7,
CN(C)c1ccc(/C=N/NC(=O)Cn2nnc3ccccc32)cc1,1,-29,10%,6,2.5,

# Reprinted at random: 6 records from the list.
SMILES,Mtb betalactam,YopH PTP inh,Mtb growth,Arbovirus inh,RecA splice inh,others
O=C1NC(=O)N(c2ccccc2)C(=O)/C1=C\c1ccc2c3c(cccc13)CC2,8,-9,-1%,-3,-2.9,
CN(C)S(=O)(=O)c1cccc(C(=O)NCCNC(=O)c2cccc(S(=O)(=O)N(C)C)c2)c1,-5,/,/,/,0.1,
O=S(=O)(NCC1COc2ccccc2O1)c1ccc2ccccc2c1 (centres undefined),3,-18,0%,14,-2.7,
CS(=O)(=O)Nc1ccc(C2=NN(C(=O)c3ccco3)C(c3ccccc3F)C2)cc1 (centres undefined),12,/,3%,1,3.3,
COC(=O)Oc1ccc(/C=N/NS(=O)(=O)c2ccccc2)cc1OC,2,/,/,/,-1.8,
CC1CC(C)CN(S(=O)(=O)c2cc(C(=O)O)c(Cl)s2)C1 (centres undefined),1,-8,2%,5,-18,

# New compounds follow
SMILES,Mtb betalactam,YopH PTP inh,Mtb growth,Arbovirus inh,RecA splice inh,others
CCc1ccc(Oc2coc3cc(OC(=O)c4cc5ccccc5oc4=O)ccc3c2=O)cc1,6,-10,-9%,-1,-1.5,
O=c1c2c3c(sc2nc2n1CCCC2)CCCC3,-4,-17,-2%,-4,-2.0,
CCOc1ccc(N2C(=O)NC(=O)/C(=C/c3cnc(SC)nc3)C2=O)cc1,3,/,1%,4,1.0,
CC(=O)NC(CCS(C)(=O)=O)C(=O)Nc1ccc(F)cc1Cl (centres undefined),3,-47,/,6,1.1,
CCC(C)Nc1c([N+](=O)[O-])cc(C)cc1[N+](=O)[O-] (centres undefined),2,-40,/,1,1.0,
CC1Cc2ccccc2N1C(=O)CSc1nnc(Cn2nnc3ccccc32)n1C (centres undefined),1,-4,-2%,5,1.5,
Cc1ccc(C(C)C)c(OCc2nnc(SCC(=O)Nc3ncc(C)s3)n2C)c1,1,-6,1%,0,0.0,
CC1=C(C(N)=O)C(c2ccccn2)n2nc(SCc3ccccc3)nc2N1 (centres undefined),1,-97,0%,6,-0.2,Arbovirus inh repeat=5
CCOC(=O)C1CCN(c2c(C(=O)c3ccccc3)cnc3ccc(CC)cc23)CC1,-5,/,6%,-15,2.4,
COc1ccc(N2CCN(C(=O)c3cc(=O)c4cc(C)ccc4o3)CC2)cc1,62,/,/,/,-3.8,
CN1CCN(C(=O)c2cc(C(C)(C)C)cc(C(C)(C)C)c2)CC1,7,/,-7%,-4,1.2,
O=C(CSc1nc2ccccc2s1)Nn1cnnc1,-5,-52,-8%,-1,-4.3,
Cc1[nH]n(-c2ccccc2)c(=O)c1C(c1cccc([N+](=O)[O-])c1O)c1c(C)[nH]n(-c2ccccc2)c1=O,1,-10,2%,-7,93*,
CCOc1ccccc1C(=O)Nc1nncs1,-2,-26,-3%,-6,1.1,
Cc1cc(C)cc(Oc2nc3c(C)cccn3c(=O)c2/C=C(\C#N)C(=O)NC2CCS(=O)(=O)C2)c1 (centres undefined),-5,-30,14%,-38,/,
N/C(=N\OC(=O)CN1C(=O)c2ccccc2C1=O)c1ccc(Cl)cc1,7,/,0%,2,0.8,
CCn1c(SCC(=O)NC(C)(C)C)nnc1-c1ccoc1C,-6,-22,0%,-1,-0.5,
O=C(COc1cccc2cccnc12)N/N=C/c1ccc(O)cc1,/,/,-3%,3,-0.9,
Cc1cc(SCC(=O)NCCN2C(=O)CSC2=O)nc2c(C)cccc12,5,-17,-4%,-5,-0.8,
CC(=O)NC(CC(=O)Nc1ccc(S(=O)(=O)N2CCCCC2)cc1)c1ccccc1 (centres undefined),-30,-19,-11%,-1,-2.1,
COc1ccc(CN(C)C(=O)c2ccc(NC(=O)CC3SC(N4CCCC4)=NC3=O)cc2)c(OC)c1 (centres undefined),-1,/,/,/,0.6,
CCc1ccc(CNC(=O)CCc2nnc(Cc3cccc(C(F)(F)F)c3)o2)nc1,1,/,-5%,3,2.0,
O=C(NNc1ccc([N+](=O)[O-])cc1)Nc1ccccc1,15,/,/,/,1.9,
Cn1cc(S(=O)(=O)N2CCOCC2)cc1C(=O)NCCc1ccccc1,-3,/,/,/,1.4,
CCCN1CCc2c(sc(NC(=O)c3ccc(S(=O)(=O)N4CCCC4)cc3)c2C(N)=O)C1,-3,/,/,/,-0.9,
CC(C)c1ccc(C(=O)Nc2ccc(N3CCOCC3)cc2)cc1,6,-15,16%,-22,-1.6,
COc1cccc(CN(C)C(=O)Cc2c[nH]c3ccccc23)c1OC,3,/,/,/,1.2,
COc1ccccc1Cc1nc2ccccc2n1S(=O)(=O)c1ccc(Cl)cc1,3,-22,4%,-2,-7.0,
CC(=O)N1CCc2cc(S(=O)(=O)CCC(=O)NCc3ccco3)ccc21,-7,/,-6%,5,-2.0,
COc1ccc(S(=O)(=O)NCC(c2ccc(C)cc2)N2CCN(C)CC2)cc1OC (centres undefined),-11,/,/,/,1.2,
O=C(O)CCCCCNCc1ccncc1,-3,-48,1%,3,-0.2,
COc1cc(/C=C2/C(=N)N3OC(C)=CC3=NC2=O)ccc1OCCOc1ccc(C)cc1,-2,-1,1%,8,-0.7,
c1ccc(C2=Nc3cccc4cccc(c34)N2)cc1,9,7,15%,-18,9.3,
Cc1ccc2nc(NC(=O)c3ccc(Cl)s3)sc2c1,2,-37,10%,18,/,Arbovirus inh repeat=7
C=CCn1c(O)c(C=NC2CCN(Cc3ccccc3)CC2)c(=O)[nH]c1=O,-7,/,-5%,/,-1.2,
COc1ccc(C(CNC(=O)c2ccc(S(=O)(=O)Nc3ccc(F)cc3)cc2)N(C)C)cc1 (centres undefined),2,/,/,/,0.9,
C=CCc1ccc(O)c(-c2ccc(O)c(CC=C)c2)c1,-2,/,17%,-20,26,
COc1ccc(-c2nnc(SCC(=O)NCc3cccs3)n2C)cc1,3,-17,-12%,0,-6.3,
O=C(CSc1nc2c(c(=O)n1-c1ccc(Cl)cc1)SCC2)Nc1nccs1,-1,-18,2%,-4,/,Arbovirus inh repeat=-2
O=C(O)c1cccc(N2C(=O)c3cc4cccc(Br)c4cc3C2=O)c1,-6,/,/,/,-3.2,
CC(=O)c1cccc(NC(=O)/C(=C/c2ccncc2)NC(=O)c2ccccc2)c1,7,/,/,/,-1.1,
Cc1cc(C)nc(-n2c(C)nc3cc(Cl)ccc3c2=O)c1,-4,-18,-11%,7,-1.7,
COCCCC1CCN(C(=O)C2CCC(=O)N(Cc3cccc(F)c3)C2)CC1 (centres undefined),-5,/,/,/,-4.4,
Cc1sc2nc(CN(C(=O)NC3CCCCC3)C3CCCCC3)[nH]c(=O)c2c1C,3,-12,3%,10,-3.5,
CCOCCN(C=O)c1cccc(OC)c1,-4,-60,-8%,3,-0.3,
CCCN(CC(=O)Nc1ccccc1C)C(=O)C1CCN(S(=O)(=O)c2cccc(C(F)(F)F)c2)CC1,-6,/,/,/,1.8,
CNC(=S)N1N=C(c2ccc(C)cc2)CC1c1ccc(Br)cc1 (centres undefined),26,3,0%,-10,12,
O=C(Cn1cncn1)N/N=C/c1ccccc1Cl,-11,/,-11%,/,1.8,
COc1cccc(CCC(=O)O)c1OC,2,-22,-18%,2,-1.5,
CN1CCN(C(=S)c2cn(Cc3ccc(F)cc3)c3ccccc23)CC1,0,/,-4%,2,-2.6,
COc1cc2c(cc1OC)-c1nnc(C)n1C(C)(C)C2,-5,-35,0%,8,-0.8,
Cn1c(SCC(=O)c2ccc(O)c(O)c2)nnc1-c1ccccc1,6,/,/,/,-6.1,

# In the list so far, two have a tert-butyl group:
SMILES,Mtb betalactam,YopH PTP inh,Mtb growth,Arbovirus inh,RecA splice inh,others
CN1CCN(C(=O)c2cc(C(C)(C)C)cc(C(C)(C)C)c2)CC1,7,/,-7%,-4,1.2,
CCn1c(SCC(=O)NC(C)(C)C)nnc1-c1ccoc1C,-6,-22,0%,-1,-0.5,
